Bioassay records: PubChem BioAssay, Broad Institute
rRNA inh HTS: reduced GFP signal of wild-type E. coli, primary screen, bacterial rRNA inhibitor project, GFP/RFP fluorescence, OD600, single point. AID 720706, 2013. E. coli WT GFP vs humanized-ribosome RFP mutants, 24 h; hits give low values; DMSO median 0, no signal -100. 350,000 compounds, 1.6% hits. GFP signal change (wild-type ribosome), % (no concentration beside the values);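 active means significant combined selectivity score with lowered wild-type GFP, culture density cut under 30%, mutant RFP and density less affected; inactive means any of these conditions unmet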; further: one replicate is shown; some compounds called inactive have numbers as strong as hits
rRNA inh HTS OD600: recorded beside rRNA inh HTS, whose call it bears; OD600 change, %; measured here: OD600 growth;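 optical density of the mix in the first replicate; 0 = DMSO median and -100 = no signal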
rRNA inh HTS RFP: further read-out of rRNA inh HTS, marked with its call; RFP signal change, %; measured here: RFP humanized mutant strains;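 first replicate; 0 = DMSO median and -100 = no signal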
* = called active by the depositor. Only part of the results is shown; count on the stated rates, not on these rows.

Results for COCOCCn1cc(CN2CCS(=O)(=O)N(Cc3ccc(-c4ccc(Cl)c(Cl)c4)cc3)C(C(C)C)C2=O)nn1 (stereo unspecified) ?
rRNA inh HTS: 6; rRNA inh HTS OD600: 4; rRNA inh HTS RFP: -2.0

What do the screens show for `Cc1noc(C)c1NC(=O)Nc1ccc2c(c1)CC(=O)N([C@@H](C)CO)C[C@H](C)[C@H](CN(C)C(=O)Nc1ccccc1)O2`?
rRNA inh HTS: 4; rRNA inh HTS OD600: 0; rRNA inh HTS RFP: -1.2

What do the screens show for `CCC1NC(=O)c2cccnc2-n2c1nc1cc(F)ccc1c2=O` (stereo unspecified)?
rRNA inh HTS: 4; rRNA inh HTS OD600: -3; rRNA inh HTS RFP: -5.3

How did O=C1CNC[C@H]2[C@H](c3ccc(C4=CCCC4)cc3)[C@@H](CO)N12 do in these assays?
rRNA inh HTS: -5; rRNA inh HTS OD600: 1; rRNA inh HTS RFP: 0.5

Results for Cc1noc(C)c1NC(=O)N(C)C[C@H]1Oc2c(NS(=O)(=O)c3cccs3)cccc2C(=O)N([C@@H](C)CO)C[C@H]1C ?
rRNA inh HTS: 2; rRNA inh HTS OD600: -1; rRNA inh HTS RFP: -0.2

What do the screens show for `C[C@H](CO)N1C[C@H](C)[C@H](CN(C)C(=O)Nc2ccc3c(c2)OCO3)OCCCC[C@H](C)Oc2ccc(NS(=O)(=O)c3cn(C)cn3)cc2C1=O`?
rRNA inh HTS: 0; rRNA inh HTS OD600: -4; rRNA inh HTS RFP: -0.1

Results for O=C(Nc1ccc2c(c1)[C@H]1C[C@H](CC(=O)N3CCOCC3)O[C@@H](CO)[C@H]1O2)Nc1ccccc1F ?
rRNA inh HTS: -3; rRNA inh HTS OD600: -2; rRNA inh HTS RFP: -1.3

Results for COc1ccc(NC(=O)C2(C)Cc3c(-c4ccc5c(c4)OCO5)ccnc3O2)cc1OC (stereo unspecified) ?
rRNA inh HTS: -5; rRNA inh HTS OD600: -5; rRNA inh HTS RFP: -2.2

What do the screens show for `O=C1NC[C@@H](CCCCN2C[C@H](Cc3ccccc3)N(CCc3ccc(O)cc3)C(=O)C2=O)N(CC2CCCCC2)C1=O`?
rRNA inh HTS: -6; rRNA inh HTS OD600: -5; rRNA inh HTS RFP: 5.5

Results for CC(=O)Nc1ccc(CN(C)c2c(C)nc3ccc(C(=O)N(C)Cc4ccco4)cn23)cc1 ?
rRNA inh HTS: 10; rRNA inh HTS OD600: -1; rRNA inh HTS RFP: 6.3

How did COCC(=O)N(C[C@H]1N[C@H](CO)[C@H]1c1ccc(C2=CCCCC2)cc1)C(C)C do in these assays?
rRNA inh HTS: 3; rRNA inh HTS OD600: 4; rRNA inh HTS RFP: 2.2

How did CO[C@H]1CN(C)C(=O)c2cc(NS(=O)(=O)c3ccc(-c4ccccc4)cc3)ccc2OC[C@@H](C)NC[C@H]1C do in these assays?
rRNA inh HTS: 0; rRNA inh HTS OD600: -12; rRNA inh HTS RFP: 5.6

Results for C[C@@H]1CN([C@@H](C)CO)C(=O)c2cccc(NC(=O)Nc3ccccc3)c2O[C@@H]1CN(C)S(C)(=O)=O ?
rRNA inh HTS: 0; rRNA inh HTS OD600: -2; rRNA inh HTS RFP: 0.1

Results for O=C(C[C@@H]1C[C@@H]2c3cc(NS(=O)(=O)c4ccc(F)cc4)ccc3O[C@@H]2[C@@H](CO)O1)NCc1ccc(Cl)cc1 ?
rRNA inh HTS: -2; rRNA inh HTS OD600: -9; rRNA inh HTS RFP: 2.3

What do the screens show for `CSc1ccc(C(=O)NCC2CCN(C(=O)C(=O)c3cc4ccccc4o3)CC2)cc1`?
rRNA inh HTS: -14*; rRNA inh HTS OD600: -10*; rRNA inh HTS RFP: 4.0*

What do the screens show for `C[C@@H]1CN([C@@H](C)CO)C(=O)c2cc(NC(=O)Cn3cnnn3)ccc2O[C@H]1CN(C)C(=O)Nc1cccc2ccccc12`?
rRNA inh HTS: 1; rRNA inh HTS OD600: 4; rRNA inh HTS RFP: 1.4

What do the screens show for `C[C@@H]1CN([C@@H](C)CO)C(=O)c2cc(-c3ccc(C#N)cc3)cnc2O[C@H]1CN(C)CC1CCOCC1`?
rRNA inh HTS: 4; rRNA inh HTS OD600: 1; rRNA inh HTS RFP: -1.3

What do the screens show for `CCCNC(=O)N(C)C[C@H]1Oc2ncc(/C=C/c3ccccc3)cc2C(=O)N([C@H](C)CO)C[C@H]1C`?
rRNA inh HTS: -3; rRNA inh HTS OD600: 2; rRNA inh HTS RFP: -0.8

What do the screens show for `Cc1noc(C)c1S(=O)(=O)N(C)C[C@H]1OCCCC[C@@H](C)Oc2ccc(NC(=O)Nc3ccc(C(F)(F)F)cc3)cc2C(=O)N([C@H](C)CO)C[C@@H]1C`?
rRNA inh HTS: 1; rRNA inh HTS OD600: 10; rRNA inh HTS RFP: -1.3

What do the screens show for `C[C@@H]1CN([C@@H](C)CO)C(=O)Cc2cc(NS(=O)(=O)c3ccc(Cl)cc3)ccc2O[C@@H]1CN(C)Cc1ccccc1`?
rRNA inh HTS: 1; rRNA inh HTS OD600: -18; rRNA inh HTS RFP: 0.3

Pulled by structure from the list above, four records:
What do the screens show for `C[C@H](CO)N1C[C@H](C)[C@H](CN(C)C(=O)Nc2ccc3c(c2)OCO3)OCCCC[C@H](C)Oc2ccc(NS(=O)(=O)c3cn(C)cn3)cc2C1=O`?
rRNA inh HTS: 0; rRNA inh HTS OD600: -4; rRNA inh HTS RFP: -0.1

What do the screens show for `CCC1NC(=O)c2cccnc2-n2c1nc1cc(F)ccc1c2=O` (stereo unspecified)?
rRNA inh HTS: 4; rRNA inh HTS OD600: -3; rRNA inh HTS RFP: -5.3

Results for COc1ccc(NC(=O)C2(C)Cc3c(-c4ccc5c(c4)OCO5)ccnc3O2)cc1OC (stereo unspecified) ?
rRNA inh HTS: -5; rRNA inh HTS OD600: -5; rRNA inh HTS RFP: -2.2

What do the screens show for `CCCNC(=O)N(C)C[C@H]1Oc2ncc(/C=C/c3ccccc3)cc2C(=O)N([C@H](C)CO)C[C@H]1C`?
rRNA inh HTS: -3; rRNA inh HTS OD600: 2; rRNA inh HTS RFP: -0.8

Copied from above, 2 compounds:
Results for COCOCCn1cc(CN2CCS(=O)(=O)N(Cc3ccc(-c4ccc(Cl)c(Cl)c4)cc3)C(C(C)C)C2=O)nn1 (stereo unspecified) ?
rRNA inh HTS: 6; rRNA inh HTS OD600: 4; rRNA inh HTS RFP: -2.0

What do the screens show for `Cc1noc(C)c1NC(=O)Nc1ccc2c(c1)CC(=O)N([C@@H](C)CO)C[C@H](C)[C@H](CN(C)C(=O)Nc1ccccc1)O2`?
rRNA inh HTS: 4; rRNA inh HTS OD600: 0; rRNA inh HTS RFP: -1.2

Returning to the listing; the two compounds before the break are reprinted first.
What do the screens show for `Cc1noc(C)c1S(=O)(=O)N(C)C[C@H]1OCCCC[C@@H](C)Oc2ccc(NC(=O)Nc3ccc(C(F)(F)F)cc3)cc2C(=O)N([C@H](C)CO)C[C@@H]1C`?
rRNA inh HTS: 1; rRNA inh HTS OD600: 10; rRNA inh HTS RFP: -1.3

What do the screens show for `C[C@@H]1CN([C@@H](C)CO)C(=O)Cc2cc(NS(=O)(=O)c3ccc(Cl)cc3)ccc2O[C@@H]1CN(C)Cc1ccccc1`?
rRNA inh HTS: 1; rRNA inh HTS OD600: -18; rRNA inh HTS RFP: 0.3

Results for C[C@@H]1CN([C@H](C)CO)C(=O)Cc2cc(NS(=O)(=O)c3cccs3)ccc2O[C@H]1CN(C)Cc1ccncc1 ?
rRNA inh HTS: -3; rRNA inh HTS OD600: 6; rRNA inh HTS RFP: 0.4

How did O=C1NC[C@@H](CCCCN2CCN(CCC3CCCCC3)C(=O)C2=O)N(CC2CCCCC2)C1=O do in these assays?
rRNA inh HTS: -25; rRNA inh HTS OD600: -37; rRNA inh HTS RFP: -2.2

Results for C[C@@H]1CN([C@@H](C)CO)C(=O)c2cc(C#CCC3CCCC3)cnc2O[C@H]1CN(C)C(=O)CN(C)C ?
rRNA inh HTS: 1; rRNA inh HTS OD600: 8; rRNA inh HTS RFP: -0.2

Results for C/C=C/c1cnc2c(c1)C(=O)N([C@@H](C)CO)C[C@@H](C)[C@@H](CN(C)C(=O)C1CCCCC1)O2 ?
rRNA inh HTS: 1; rRNA inh HTS OD600: 10; rRNA inh HTS RFP: -3.9

Results for C[C@@H]1CCCCO[C@H](CN(C)Cc2ccc(C(F)(F)F)cc2)[C@@H](C)CN([C@@H](C)CO)C(=O)c2cc(N(C)C)ccc2O1 ?
rRNA inh HTS: 0; rRNA inh HTS OD600: 6; rRNA inh HTS RFP: 0.3

How did COc1ccccc1C(=O)Nc1ccc2c(c1)C(=O)N(C)C[C@@H](OC)[C@@H](C)CN(C(C)=O)[C@@H](C)CO2 do in these assays?
rRNA inh HTS: -2; rRNA inh HTS OD600: -2; rRNA inh HTS RFP: -1.0

What do the screens show for `COc1ccc(CCC(=O)N2c3ccccc3N=C(c3ccc(C(F)(F)F)cc3)C2C(=O)NC(C)C)cc1` (stereo unspecified)?
rRNA inh HTS: 4; rRNA inh HTS OD600: 9; rRNA inh HTS RFP: -3.8

How did COCC(=O)Nc1ccc2c(c1)OC[C@H](C)N(Cc1ccccn1)C[C@H](C)[C@H](OC)CN(C)C2=O do in these assays?
rRNA inh HTS: 2; rRNA inh HTS OD600: 7; rRNA inh HTS RFP: -2.7

Results for COCC(=O)Nc1ccc2c(c1)C(=O)N(C)C[C@H](OC)[C@H](C)CN(C(=O)NC(C)C)[C@@H](C)CO2 ?
rRNA inh HTS: -2; rRNA inh HTS OD600: -2; rRNA inh HTS RFP: 0.2

Results for C[C@@H]1CCCCO[C@H](CN(C)Cc2ccc(C(F)(F)F)cc2)[C@H](C)CN([C@@H](C)CO)C(=O)c2cc(NC(=O)Nc3ccc4c(c3)OCO4)ccc2O1 ?
rRNA inh HTS: -1; rRNA inh HTS OD600: 7; rRNA inh HTS RFP: 0.0

What do the screens show for `C[C@@H]1CN([C@@H](C)CO)S(=O)(=O)c2ccc(-c3ccccc3)cc2O[C@H]1CN(C)S(C)(=O)=O`?
rRNA inh HTS: -9; rRNA inh HTS OD600: -17; rRNA inh HTS RFP: 4.8

Results for CCCNC(=O)C[C@@H]1CC[C@H]2[C@H](COc3ccc(NC(=O)CCC)cc3C(=O)N2C)O1 ?
rRNA inh HTS: 1; rRNA inh HTS OD600: 11; rRNA inh HTS RFP: -2.8

What do the screens show for `CCNC(=O)[C@@H]1[C@@H](CO)[C@@H]2Cn3c(ccc(/C=C/c4ccccc4)c3=O)[C@@H]2N1C(=O)C1CC1`?
rRNA inh HTS: -1; rRNA inh HTS OD600: 7; rRNA inh HTS RFP: -0.3

What do the screens show for `COc1ccc2c3c(n(C)c2c1)[C@H](CO)N(CC1CC1)CC31CN(C(=O)Nc2ccc(F)cc2F)C1`?
rRNA inh HTS: -4; rRNA inh HTS OD600: -2; rRNA inh HTS RFP: 0.5

Results for COc1cc(OC)cc(-c2cc3nc4c(c(N5CCN(c6cnccn6)CC5)n3n2)CCCC4)c1 ?
rRNA inh HTS: 3; rRNA inh HTS OD600: 1; rRNA inh HTS RFP: -0.3

Results for Cc1noc(C)c1S(=O)(=O)Nc1ccc2c(c1)C(=O)N([C@@H](C)CO)C[C@@H](C)[C@H](CN(C)C(=O)CCCN(C)C)OCCCC[C@@H](C)O2 ?
rRNA inh HTS: 1; rRNA inh HTS OD600: 3; rRNA inh HTS RFP: 0.4

How did CN(C)CC#Cc1ccc([C@@H]2[C@@H](CO)N3C(=O)CN(C(=O)Cc4ccccc4)C[C@@H]23)cc1 do in these assays?
rRNA inh HTS: 4; rRNA inh HTS OD600: 9; rRNA inh HTS RFP: -2.7

What do the screens show for `C[C@@H]1CN([C@@H](C)CO)C(=O)Cc2cc(NC(=O)CCCCCC(=O)Nc3ccccc3N)ccc2O[C@@H]1CN(C)Cc1ccc(C(F)(F)F)cc1`?
rRNA inh HTS: -1; rRNA inh HTS OD600: 0; rRNA inh HTS RFP: 13

How did CNC[C@H]1OCCCC[C@H](C)Oc2ccc(NS(=O)(=O)c3ccc(Cl)cc3)cc2C(=O)N([C@H](C)CO)C[C@@H]1C do in these assays?
rRNA inh HTS: 3; rRNA inh HTS OD600: 2; rRNA inh HTS RFP: 1.1

How did COCC(=O)Nc1ccc2c(c1)C(=O)N(C)C[C@@H](OC)[C@@H](C)CN(C(=O)c1ccncc1)[C@H](C)CO2 do in these assays?
rRNA inh HTS: 1; rRNA inh HTS OD600: 7; rRNA inh HTS RFP: 0.0

Results for C[C@@H]1CN([C@@H](C)CO)C(=O)Cc2cc(NC(=O)CCC(F)(F)F)ccc2O[C@@H]1CN(C)C(=O)Nc1ccc2c(c1)OCO2 ?
rRNA inh HTS: 3; rRNA inh HTS OD600: 8; rRNA inh HTS RFP: -1.2

Results for O=C(C[C@H]1CC[C@H]2[C@@H](COC[C@@H](O)CN2C(=O)C2CCOCC2)O1)NCc1ccncc1 ?
rRNA inh HTS: 4; rRNA inh HTS OD600: 6; rRNA inh HTS RFP: 13

How did C[C@H]1CN([C@@H](C)CO)S(=O)(=O)c2ccc(-c3ccccc3)cc2O[C@H]1CN(C)Cc1cccc(F)c1 do in these assays?
rRNA inh HTS: -2; rRNA inh HTS OD600: -9; rRNA inh HTS RFP: 6.9

Results for CCCN1C[C@H](C)[C@@H](OC)CN(C)C(=O)c2ccc(NC(=O)C3CCOCC3)cc2OC[C@H]1C ?
rRNA inh HTS: -1; rRNA inh HTS OD600: -2; rRNA inh HTS RFP: -1.0

How did C[C@H](CO)N1C[C@H](C)[C@H](CN(C)Cc2ccc(Cl)c(Cl)c2)OCc2ccccc2-c2c(n(C)c3ccccc23)C1=O do in these assays?
rRNA inh HTS: 4; rRNA inh HTS OD600: -3; rRNA inh HTS RFP: -1.3
